UUG fidelity – modulators of start codon recognition fidelity in yeast | activity score, % at 18.7 µM | 350,000 tested, 0.13% active | AID 602363 | S. cerevisiae UUG-firefly luciferase reporter, luminescence/redox ratio;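 active means replicate mean at a twofold rise or more, about +100% in these data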;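 further: firefly luciferase made from a UUG start codon reports start codon fidelity; reporter light over untreated wells divided by growth signal over untreated wells; some hits fall short of that in this replicate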
The depositor's hits bear a star. Some of the compounds tested (hit frequency here may not be typical).

UUG fidelity,Molecule
0,C[C@H]1CN([C@@H](C)CO)C(=O)c2cccc(NS(=O)(=O)c3cccs3)c2O[C@@H]1CN(C)C(=O)Nc1ccc(C(F)(F)F)cc1
20,C[C@@H]1CN([C@H](C)CO)C(=O)c2cc(NC(=O)C3CC3)ccc2O[C@@H]1CN(C)C(=O)Nc1ccc(C(F)(F)F)cc1
32,C[C@@H](O)C#Cc1ccc([C@@H]2[C@H](CO)N3CCCCN(S(=O)(=O)c4ccccc4)C[C@@H]23)cc1
9,O=C(NC[C@@H]1[C@@H](c2ccccc2)[C@@H](CO)N1Cc1cccnc1)c1ccccn1
-7,COCC(=O)N1CCCCN2[C@H](CO)[C@H](c3ccc(-c4ccc(F)cc4)cc3)[C@H]2C1
-19,CO[C@@H]1CN(C)C(=O)c2ccc(NS(=O)(=O)c3ccc(C)cc3)cc2OC[C@@H](C)NC[C@@H]1C
-2,CO[C@H]1CN(C)C(=O)c2ccc(NS(=O)(=O)c3cccc(F)c3)cc2OC[C@@H](C)N(C(=O)Cc2cccnc2)C[C@@H]1C
-5,CCCN1C[C@@H](C)[C@H](OC)CN(C)C(=O)c2cc(NC(=O)NC3CCCCC3)ccc2OC[C@@H]1C
2,CCC(=O)Nc1ccc2c(c1)OC[C@@H](C)N(Cc1cc(-c3ccccc3)on1)C[C@@H](C)[C@H](OC)CN(C)C2=O
3,CCCNC(=O)N1[C@@H](CO)[C@@H]2c3ccccc3N(C(=O)Nc3cccc(Cl)c3)C[C@@H]21

A second format for three compounds above:
> CCCN1C[C@@H](C)[C@H](OC)CN(C)C(=O)c2cc(NC(=O)NC3CCCCC3)ccc2OC[C@@H]1C
  UUG fidelity: -5

> CO[C@@H]1CN(C)C(=O)c2ccc(NS(=O)(=O)c3ccc(C)cc3)cc2OC[C@@H](C)NC[C@@H]1C
  UUG fidelity: -19

> C[C@@H]1CN([C@H](C)CO)C(=O)c2cc(NC(=O)C3CC3)ccc2O[C@@H]1CN(C)C(=O)Nc1ccc(C(F)(F)F)cc1
  UUG fidelity: 20

Additional structures follow:
UUG fidelity,Molecule
6,COc1ccc(CN(C)C[C@H]2Oc3ccc(NC(=O)Nc4ccc(F)cc4)cc3C(=O)N([C@H](C)CO)C[C@@H]2C)cc1
-11,CN1c2ccc(-c3ccccc3F)cc2[C@H]2[C@H](CCN2S(=O)(=O)c2ccccc2)[C@@H]1CO
2,CC(C)NC[C@@H]1[C@H](c2ccc(C3=CCCCC3)cc2)[C@H](CO)N1C(=O)NC(C)C
-16,COc1ccc(CN(C)C[C@@H]2Oc3c(NS(=O)(=O)c4cn(C)cn4)cccc3C(=O)N([C@H](C)CO)C[C@H]2C)cc1
6,CCCC(=O)Nc1ccc2c(c1)C(=O)N(C)[C@@H]1CC[C@H](CC(=O)NCc3ccccc3Cl)O[C@@H]1CO2
8,CCCNC(=O)Nc1ccc2c(c1)OC[C@@H](C)N(Cc1cncnc1)C[C@@H](C)[C@H](OC)CN(C)C2=O
42,C[C@H]1CN([C@@H](C)CO)C(=O)c2c(c3ccccc3n2C)-c2ccccc2CO[C@@H]1CN(C)C(=O)Nc1ccccc1
-14,CN(C)CC(=O)Nc1ccc2c(c1)[C@H]1C[C@H](CC(=O)N(C)C)O[C@H](CO)[C@H]1O2
-13,C[C@@H]1CN([C@@H](C)CO)C(=O)c2cccc(NC(=O)c3cnccn3)c2O[C@@H]1CN(C)C(=O)Nc1ccc(C(F)(F)F)cc1
17,CC(=O)NC[C@H]1[C@H](c2ccc(C3=CCCC3)cc2)[C@H](CO)N1C(=O)NC(C)C

The final seven compounds of the section before open the next one:
UUG fidelity,Molecule
-16,COc1ccc(CN(C)C[C@@H]2Oc3c(NS(=O)(=O)c4cn(C)cn4)cccc3C(=O)N([C@H](C)CO)C[C@H]2C)cc1
6,CCCC(=O)Nc1ccc2c(c1)C(=O)N(C)[C@@H]1CC[C@H](CC(=O)NCc3ccccc3Cl)O[C@@H]1CO2
8,CCCNC(=O)Nc1ccc2c(c1)OC[C@@H](C)N(Cc1cncnc1)C[C@@H](C)[C@H](OC)CN(C)C2=O
42,C[C@H]1CN([C@@H](C)CO)C(=O)c2c(c3ccccc3n2C)-c2ccccc2CO[C@@H]1CN(C)C(=O)Nc1ccccc1
-14,CN(C)CC(=O)Nc1ccc2c(c1)[C@H]1C[C@H](CC(=O)N(C)C)O[C@H](CO)[C@H]1O2
-13,C[C@@H]1CN([C@@H](C)CO)C(=O)c2cccc(NC(=O)c3cnccn3)c2O[C@@H]1CN(C)C(=O)Nc1ccc(C(F)(F)F)cc1
17,CC(=O)NC[C@H]1[C@H](c2ccc(C3=CCCC3)cc2)[C@H](CO)N1C(=O)NC(C)C
-10,O=C(Nc1cccc(F)c1)N1CCCCN2[C@H](CO)[C@H](c3ccc(-c4ccncc4)cc3)[C@H]2C1
1,C[C@@H]1CN([C@H](C)CO)C(=O)c2cc(NC(=O)Nc3ccc(C(F)(F)F)cc3)ccc2O[C@@H]1CN(C)C(=O)Nc1ccccc1
180*,COCC(=O)Nc1ccc2c(c1)C(=O)N(C)C[C@@H](OC)[C@@H](C)CN(Cc1ccccc1F)[C@@H](C)CO2
-15,C[C@H]1CN([C@@H](C)CO)C(=O)c2cc(NS(C)(=O)=O)ccc2O[C@@H]1CN(C)C(=O)Nc1ccc2c(c1)OCO2
1,CCNC[C@@H]1[C@H](c2ccccc2)[C@H](CO)N1C(=O)Cc1ccccn1
-6,O=S(=O)(c1ccc(F)cc1)N1CC[C@@H]2[C@@H](CO)Nc3ccc(-c4ccccc4F)cc3[C@@H]21
16,O=S(=O)(c1ccccc1)N1CCCCN2[C@H](CO)[C@H](c3ccc(C#Cc4ccccc4)cc3)[C@@H]2C1
2,CCC(=O)N1CC[C@@H]2[C@@H](CO)N(C)c3ccc(-c4ccccc4)cc3[C@@H]21
-10,Cc1cc(C(=O)Nc2cccc3c2O[C@H](CN(C)C(=O)Nc2ccccc2)[C@H](C)CN([C@@H](C)CO)C3=O)n(C)n1
2,CCC(=O)N1C[C@@H](C)[C@H](OC)CN(C)C(=O)c2ccc(NC(=O)C3CC3)cc2OC[C@H]1C

(listing goes on)
UUG fidelity,Molecule
0,Cc1cccc(S(=O)(=O)N2C[C@H]3[C@@H](c4ccccc42)[C@@H](CO)N3CC2CCCC2)c1
6,C[C@@H]1CN([C@H](C)CO)C(=O)c2cccc(NS(=O)(=O)c3cccs3)c2O[C@@H]1CN(C)Cc1ccc(Oc2ccccc2)cc1
12,C[C@H](CO)N1C[C@H](C)[C@H](CN(C)S(=O)(=O)c2ccccc2)Oc2c(NC(=O)NC3CCCCC3)cccc2C1=O
-16,C[C@H](CO)N1C[C@H](C)[C@@H](CN(C)C)Oc2ccc(NC(=O)CCC(F)(F)F)cc2C1=O
-13,CCCNC(=O)N1C[C@@H]2[C@H](c3ccccc31)[C@@H](CO)N2C(=O)NC(C)C
-11,CCCNC(=O)N1[C@H](CNC(C)=O)[C@@H](c2ccccc2)[C@@H]1CO
5,C[C@@H]1CN([C@H](C)CO)C(=O)c2cccc(NC(=O)Nc3ccccc3)c2O[C@@H]1CN(C)C(=O)Nc1cccc2ccccc12
16,COc1ccc(NC(=O)N2CC[C@@H]3[C@@H](CO)N(C)c4ccc(Br)cc4[C@@H]32)cc1
0,Cc1ccc(S(=O)(=O)N2C[C@H](O)COC[C@H]3O[C@H](CC(=O)NCCCN(C)C)CC[C@@H]32)cc1
-7,CCC(=O)N1C[C@@H]2[C@H](c3ccccc31)[C@@H](CO)N2Cc1ccccc1Cl

The listing continues:
UUG fidelity,Molecule
-12,C[C@H]1CN([C@@H](C)CO)C(=O)CCCn2nncc2CO[C@@H]1CN(C)C(=O)OCc1ccccc1
-6,CNC[C@H]1Oc2ccc(NS(=O)(=O)c3ccccc3)cc2C(=O)N([C@H](C)CO)C[C@@H]1C
-14,C[C@@H]1CN([C@@H](C)CO)C(=O)c2cccc(NC(=O)c3cnccn3)c2O[C@H]1CN(C)C(=O)Nc1ccc(C(F)(F)F)cc1
-4,CO[C@H]1CN(C)C(=O)c2ccc(NC(=O)C3CCC3)cc2OC[C@@H](C)N(Cc2cccnc2)C[C@H]1C
14,N#Cc1ccc(-c2ccc3c(c2)[C@@H]2[C@@H](CCN2C(=O)Cc2ccccc2)[C@@H](CO)N3)cc1
0,COc1ccc(S(=O)(=O)N(C)C[C@H]2Oc3ccc(NC(=O)CCC(F)(F)F)cc3C(=O)N([C@@H](C)CO)C[C@@H]2C)cc1
10,COc1ccccc1NC(=O)N1C[C@@H]2[C@H](c3ccccc31)[C@H](CO)N2C(=O)c1ccccc1
9,C[C@H](CO)N1C[C@H](C)[C@H](CN(C)Cc2ccc3c(c2)OCO3)Oc2ccc(NC(=O)Cc3cn(C)c4ccccc34)cc2C1=O
-7,O=C(C1CCCCC1)N1C[C@H]2[C@@H](c3ccccc31)[C@H](CO)N2C(=O)c1ccccc1
-5,CO[C@@H]1CN(C)C(=O)c2ccc(NS(C)(=O)=O)cc2OC[C@H](C)N(C)C[C@H]1C

Other records:
UUG fidelity,Molecule
-9,C[C@H]1CN([C@@H](C)CO)C(=O)c2cc(NS(=O)(=O)c3ccccc3)ccc2O[C@H]1CN(C)Cc1ccncc1
-3,C[C@@H]1CN([C@@H](C)CO)C(=O)c2cccc(NC(=O)Nc3ccc(F)cc3)c2O[C@@H]1CN(C)Cc1ccc2c(c1)OCO2
2,CCCC(=O)Nc1ccc2c(c1)C(=O)N(C)[C@H]1CC[C@@H](CC(=O)NCC3CC3)O[C@H]1CO2
-1,Cc1cccc(-c2ccc([C@@H]3[C@H]4CN(C(=O)NC(C)C)CCCCN4[C@H]3CO)cc2)c1
22,Cc1ccc(S(=O)(=O)Nc2cccc3c2O[C@@H](CN(C)Cc2ccc(C(F)(F)F)cc2)[C@H](C)CN([C@H](C)CO)C3=O)cc1
-7,CN1[C@@H]2Cn3c(ccc(-c4ccccc4)c3=O)[C@H]1[C@@H](C(=O)NCC1CC1)[C@@H]2CO
24,C[C@@H](O)C#Cc1ccc([C@@H]2[C@H]3CN(CC4CC4)CCCCN3[C@H]2CO)cc1
-7,Cc1ccc(S(=O)(=O)N(C)C[C@H]2Oc3ccc(NC(=O)c4ccncc4)cc3CC(=O)N([C@H](C)CO)C[C@@H]2C)cc1
28,COc1ccc(NC(=O)N2CCCCN3[C@H](CO)[C@H](c4ccc(C#CCC(C)C)cc4)[C@@H]3C2)cc1
16,O=C(C[C@H]1CC[C@H]2[C@@H](COC[C@@H](O)CN2S(=O)(=O)c2ccc(F)cc2)O1)N[C@H]1CCN(Cc2ccccc2)C1

Following part
UUG fidelity,Molecule
2,COc1ccc(S(=O)(=O)N(C)C[C@H]2Oc3ccc(NC(=O)CCCN(C)C)cc3CC(=O)N([C@@H](C)CO)C[C@@H]2C)cc1
2,CN(C)C(=O)C[C@@H]1CC[C@@H]2[C@H](COC[C@H](O)CN2C(=O)C2CCOCC2)O1
-7,C[C@H]1CN([C@@H](C)CO)C(=O)c2cc(NC(=O)Cn3cnnn3)ccc2O[C@H]1CN(C)C(=O)Nc1ccc2c(c1)OCO2
-3,COc1cccc(-c2ccc3c(c2)[C@@H]2[C@@H](CCN2S(=O)(=O)c2cccc(OC)c2)[C@@H](CO)N3)c1
6,O=C(c1ccc2c(c1)OCO2)N1CCCCN2[C@H](CO)[C@@H](c3ccc(-c4ccccc4)cc3)[C@@H]2C1
19,CCC(=O)N1[C@H](CO)[C@H](c2ccccc2)[C@@H]1CN(CC)C(=O)c1cccc(F)c1
-16,C[C@@H]1CN([C@@H](C)CO)C(=O)c2cc(NS(=O)(=O)c3cccs3)ccc2O[C@@H]1CN(C)C(=O)Nc1ccc(C(F)(F)F)cc1
6,CO[C@@H]1CN(C)C(=O)c2cc(NC(=O)Nc3ccccc3F)ccc2OC[C@@H](C)N(CC2CC2)C[C@H]1C
-2,C[C@@H]1CN([C@@H](C)CO)C(=O)c2cc(NC(=O)c3ccncc3)ccc2O[C@@H]1CN(C)Cc1ccc(C(=O)O)cc1
-11,CO[C@H]1CN(C)C(=O)c2cc(NC(=O)Nc3ccccc3F)ccc2OC[C@H](C)N(C)C[C@H]1C

(further entries)
UUG fidelity,Molecule
-13,COCC#Cc1ccc([C@H]2[C@H](CO)N3CCCCN(Cc4cncnc4)C[C@@H]23)cc1
-1,O=C(c1ccc(F)cc1)N1CCCCN2[C@H](CO)[C@H](c3ccc(/C=C/c4ccccc4)cc3)[C@@H]2C1
-3,O=C(Nc1ccccc1F)N1C[C@H]2[C@@H](c3ccccc31)[C@@H](CO)N2C(=O)c1ccccn1
-16,C[C@@H]1CN([C@H](C)CO)C(=O)c2cccc(NS(=O)(=O)c3ccc(F)cc3)c2O[C@@H]1CN(C)Cc1ccncc1
-12,CNC[C@@H]1Oc2c(NS(=O)(=O)c3ccc(C)cc3)cccc2C(=O)N([C@@H](C)CO)C[C@H]1C
-1,CC(C)Oc1cc(C(=O)N2CCC(N3CCCCC3)CC2)ccc1Nc1nnc(Cl)c(Nc2ccccc2S(C)(=O)=O)n1
-5,O=C(C[C@H]1CC[C@@H]2[C@H](COC[C@H](O)CN2C(=O)c2ccc(F)cc2)O1)N1CCOCC1
-13,C[C@H]1CN([C@@H](C)CO)C(=O)c2cc(NC(=O)CCCN(C)C)ccc2O[C@H]1CN(C)Cc1ccc(-c2ccccc2)cc1
17,Cc1noc(C)c1NC(=O)Nc1ccc2c(c1)CC(=O)N([C@@H](C)CO)C[C@@H](C)[C@H](CN(C)C)O2
-9,O=C(Nc1ccccc1F)N1CCCCN2[C@H](C1)[C@@H](c1ccc(-c3cccnc3)cc1)[C@@H]2CO

(list continues)
UUG fidelity,Molecule
-12,CCCC(=O)N1C[C@@H]2[C@H](c3ccccc31)[C@H](CO)N2Cc1cocn1
25,C[C@H](CO)N1C[C@H](C)[C@H](CN(C)C(=O)Nc2ccc(F)cc2)Oc2ccc(NC(=O)CCC(F)(F)F)cc2C1=O
-7,CN(C)C(=O)c1cccc(-c2ccc3c(c2)[C@H]2[C@H](CCN2C(=O)c2cccnc2)[C@H](CO)N3)c1
3,CN1c2ccc(-c3cccc(C#N)c3)cc2[C@@H]2[C@@H](CCN2C(=O)CC2CC2)[C@H]1CO
15,C[C@H]1CN([C@@H](C)CO)C(=O)c2cccc(NS(=O)(=O)c3ccccc3)c2O[C@@H]1CN(C)Cc1ccc2c(c1)OCO2
15,O=C(C1CC1)N1[C@H](CO)[C@@H]2c3ccccc3NC[C@@H]21

Assay outcomes from PubChem.
